Vaccinia Venus = inhibitors of vaccinia virus (Venus reporter) | Vaccinia virus Venus reporter expression, fluorescence | 330,000 compounds, 0.46% hits | Potency, µM (top dose mostly 36.5 µM), for the others: at the top dose activity change, negative = inhibition, most hits filed as inhibitors | AID 720580; active means well fitted inhibition curve with a large enough effect; inconclusive means small, poorly fitted or top-dose-only effect; inactive means no such curve, though single readings can be large or run the other way; tested in A549 cells; also: nearly all actives have a fitted effect of over 30% in size; inactives centre near -10
Vaccinia mCherry = inhibitors of vaccinia virus infection (mCherry reporter signal) | Vaccinia virus mCherry reporter infection, fluorescence; about a quarter of the inactives have no number | AID 720579 | 310,000 compounds, 0.63% hits | Potency, µM (series often up to 36.5 µM), for inactives: at the top dose activity change, negative = inhibition, most hits filed as inhibitors; active = well fitted inhibition curve with a large enough effect; inconclusive = small, poorly fitted or top-dose-only effect; inactive = no such curve, though single readings can be large or run the other way; tested in A549 cells; also: nearly all actives have a fitted effect of over 35% in size; inactives centre near -10
Active calls of the source: *; i = inactive; u = inconclusive; x = not tested or not shown; [ ] = remark or other dose. % is scaled to controls: 0 for no effect and ±100 for the full control effect; potency is read from the fitted curve at half-maximal effect. Compounds as they come; overall some 0.87% were active at least once.

SMILES	Vaccinia Venus	Vaccinia mCherry
CN1C(=O)[C@H]2[C@@H](c3ccccc3)N[C@]3(CCCN(Cc4ccc(F)cc4)C3=O)[C@H]2C1=O	-9%	-10%
O=C(Nc1ccccc1N1CCOCC1)c1ccccc1NS(=O)(=O)c1ccc(F)cc1	-16%	-18%
C[C@]1(O)CC[C@H]2[C@@H]3CCC4=CC(=O)CC[C@]4(C)[C@@]3(F)[C@@H](O)C[C@@]21C	-10%	i
COc1ccc2c(c1)OC(C)CN(CC(=O)NCc1cn[nH]c1-c1ccc(F)cc1)C2 (stereo not given)	8%	-8%
Cc1ccc(-c2c3c(=O)n(C)c(=O)n(C)c3c3c(C(F)(F)F)nc4ccccc4n23)cc1	-3%	-13%
COC(=O)C1=CN(c2ccc3c(c2)OCO3)C(N)=C(C#N)C1c1ccccc1 (stereo not given)	-21%	u
CC(C)(C)c1ccccc1NC(=O)Cn1c(=O)cnc2ccccc21	-7%	i
CC(C)C[C@@H](COCc1cccc(Cl)c1)N1CCN(C(=O)c2cccc(C(F)(F)F)c2)CCC1=O	-8%	4%
COc1ccc(C2=CC(c3sccc3C)n3nnnc3N2)cc1 (stereo not given)	-17%	i
CC(=O)NCCNC(=O)C1(C)Cc2c(-c3ccc(NC(C)=O)cc3)ccnc2O1 (stereo not given)	2%	-3%
COc1cc(C)nc(Oc2ccc(=O)n(C)n2)n1	3%	-15%
O=C(CCNC(=O)c1ccc(Br)cc1)NCC1COc2ccccc2O1 (stereo not given)	-22%	-11%
CCN(CC)S(=O)(=O)c1ccc(N2CCN(C)CC2)c(NC(=O)Nc2ccc(C)cc2)c1	-16%	-17%
CCCCOc1ccc(S(=O)(=O)Nc2ccc(-c3ccc(N4CCCCC4)nn3)cc2)cc1	-19%	-27%
CCSc1nnc(N(CCC(=O)O)CCC(=O)O)s1	-11%	i
COc1ccc(CN(C(=O)/C=C/c2ccco2)C2CCS(=O)(=O)C2)cc1 (stereo not given)	2%	-7%
COC(=O)c1ccccc1NC(=O)c1cnc2sc(N3CCOCC3)nn2c1=O	-11%	-13%
COc1ccc(NC(=O)CCC(=O)N(Cc2ccc(OC)c(OC)c2)c2nccs2)c(OC)c1	-14%	-20%
Cc1ccc(C(=O)N/C(=C/c2ccco2)C(=O)N2CCC(C)CC2)cc1	10%	-5%
Cc1cc(C)nc(NC(=O)c2cccc([N+](=O)[O-])c2C)n1	1%	x
COc1ccc(/C=C/C(=O)Nc2ccc3nc(N4CCCCC4)cc(C)c3c2)cc1OC	-20%	-19%
CC1OC(OC2CC(O)C3(CO)C4C(O)CC5(C)C(C6=CC(=O)OC6)CCC5(O)C4CCC3(O)C2)C(O)C(O)C1O (stereo not given)	u	0.089µM*
COC(=O)Nc1ccc2[nH]cc(CCNC(C)=O)c2c1	-10%	i
Cc1ccc(CSCC(=O)Nc2ccccc2F)cc1	-12%	-26%
CCCc1ccc(-c2c(C)sc(NC(=O)c3ccnn3C)c2C#N)cc1	u	11µM*

In a second layout: entries from further up.
Results follow in this order: Vaccinia Venus | Vaccinia mCherry
Cc1ccc(-c2c3c(=O)n(C)c(=O)n(C)c3c3c(C(F)(F)F)nc4ccccc4n23)cc1
→ -3% | -13%
COC(=O)C1=CN(c2ccc3c(c2)OCO3)C(N)=C(C#N)C1c1ccccc1 (stereo not given)
→ -21% | u

Random excerpt: six entries already listed
SMILES	Vaccinia Venus	Vaccinia mCherry
O=C(CCNC(=O)c1ccc(Br)cc1)NCC1COc2ccccc2O1 (stereo not given)	-22%	-11%
COC(=O)c1ccccc1NC(=O)c1cnc2sc(N3CCOCC3)nn2c1=O	-11%	-13%
Cc1ccc(-c2c3c(=O)n(C)c(=O)n(C)c3c3c(C(F)(F)F)nc4ccccc4n23)cc1	-3%	-13%
COc1cc(C)nc(Oc2ccc(=O)n(C)n2)n1	3%	-15%
CC1OC(OC2CC(O)C3(CO)C4C(O)CC5(C)C(C6=CC(=O)OC6)CCC5(O)C4CCC3(O)C2)C(O)C(O)C1O (stereo not given)	u	0.089µM*
CCSc1nnc(N(CCC(=O)O)CCC(=O)O)s1	-11%	i

Continued:
SMILES	Vaccinia Venus	Vaccinia mCherry
O=C(Nc1cc(S(=O)(=O)N2CCOCC2)ccc1N1CCOCC1)C1CCCO1 (stereo not given)	-6%	-21%
CCc1cccc(C)c1NC(=O)COC(=O)CSCc1ccccc1	-10%	-2%
CC1CCCN(S(=O)(=O)c2ccc3c(c2)C(C)(C)C(=O)N3C)C1 (stereo not given)	-7%	-13%
Cc1ccccc1C(=O)NNC(=O)c1ccoc1C	-3%	-1%
COc1ccccc1/C=C(/CC(=O)NCc1ccccc1)c1nc2ccccc2s1	0%	-18%
O=C(Oc1cccc([N+](=O)[O-])c1)N1CCCCC1	-8%	i
COc1ccc(CNC(=O)C(C)OC(=O)CCN2C(=O)C3CC=CCC3C2=O)cc1 (stereo not given)	-5%	i
COc1ccccc1CN1CCNC(=O)C1CC(=O)NCC1CCOCC1 (stereo not given)	-6%	i
N#CCc1ccc(OC(=O)c2cccnc2Cl)cc1	0%	21%
COc1ccc(-n2c(=O)[nH]cc(C(=O)N3CCCc4ccccc43)c2=O)cc1	-1%	-7%
Cc1sc2nc(C)n(/N=C/N(C)C)c(=O)c2c1C	-9%	-13%
Cc1c(C)n(Cc2ccccc2)c2ccc(C(=O)NCCN3CCOCC3)cc12	2%[7.34 µM]	-9%[7.34 µM]
O=C(Cn1ncc2c([nH]c3ccccc32)c1=O)Nc1cccc(C(F)(F)F)c1	-10%	-1%
O=c1oc(Cl)c(Cl)c2ccccc12	-30%	-17%
CCOC(=O)C1(CCOC)CCN(Cc2nc(C(C)C)cs2)CC1	-1%	i
CC(C)(C)OC(=O)NCC1CCC(C(=O)NC[C@H](CC(=O)O)c2ccc(Cl)cc2)CC1 (stereo not given in full)	-16%	-6%
CCc1ccc(S(=O)(=O)/N=C2\C=C(Nc3ccc(C(=O)O)cc3)C(=O)c3ccccc32)cc1	-6%	u
Cc1cc(-n2c(C)cc(C(=O)CN3C(=O)NC4(CCCCCC4)C3=O)c2C)no1	-22%	-28%
COc1ccc(N(C)S(=O)(=O)c2cccc(C(=O)OCC(=O)N3CC(C)CC(C)C3)c2)cc1 (stereo not given)	-19%	-6%
CCN(CC)S(=O)(=O)c1ccc2nc(NC(=O)c3ccco3)sc2c1	-8%	i
CCOC(OCC)c1cn(Cc2ccc(C(=O)c3ccccc3)cc2)nn1	-30%	-9%
O=C(CSc1nc(=O)n2ccccc2n1)NC1CCCCC1	-11%	-11%
COc1ccc(OCC(=O)Nc2ccc(S(=O)(=O)N3CCOCC3)cc2)cc1	-13%	i
CCn1cc(C=C2C(=O)NC(=O)NC2=O)c2ccccc21	-21%	i
CCN1N=C(c2ccccc2)CCC1=O	1%	i

Additional entries:
SMILES	Vaccinia Venus	Vaccinia mCherry
Cc1ccccc1C(=O)NNC(=S)NC(=O)COc1ccccc1	-3%	i
COc1ccc(CCCc2nnc(SCC(=O)N/N=C\c3ccc(O)c(OC)c3)o2)cc1C	-30%	x
CCCCNC(=O)Nc1ncn[nH]1	-6%	-5%
CCC1(C2CCN(Cc3ccc(C)s3)CC2)NC(=O)N(CC2COc3ccccc3O2)C1=O (stereo not given)	-18%	-22%
COc1cc(/C=C(/C)[N+](=O)[O-])ccc1OCc1ccccc1Cl	11µM*	u
Cc1ccc(SC(C)C(=O)NCC(C)C)cc1 (stereo not given)	-6%	1%
CCOC(=O)CCP(=O)(O)C(O)c1ccc(OC)cc1 (stereo not given)	-4%	-5%
CNC(=O)c1c(NC(=O)C2=COCCO2)sc2c1CCCC2	-27%	u
COc1ccc(C(=O)OCC(=O)NCC2CCCO2)cc1S(=O)(=O)N1CCCc2ccccc21 (stereo not given)	-8%	-12%
O=C(CCCn1c(=O)c2sccc2n(Cc2c(F)cccc2Cl)c1=O)NCc1ccccc1	-10%	-20%
Cc1cc(C)cc(N2CC(c3nc(-c4ccccc4C)no3)CC2=O)c1 (stereo not given)	-5%	-6%
O=C(NCCO)Nc1ccc2nsnc2c1	-15%	i
COc1ccc(CC(N)c2csc(Nc3cnccn3)n2)cc1 (stereo not given)	-17%	-21%
CSCCC1NC(=O)N(CC(=O)Nc2c(C(C)C)cccc2C(C)C)C1=O (stereo not given)	-10%	-20%
Cc1ccccc1N1CC(C(=O)Nc2ccncc2)CC1=O (stereo not given)	-2%	-13%
COc1cccc(C(=O)NCC2OCCc3ccccc32)c1 (stereo not given)	-8%	-6%
CCN1CCN(CCCNC(=O)c2ccc3nc(Cc4ccccc4)oc3c2)CC1	7%	-2%
CC(C)(C)NC(=O)C(=O)NN=C1CCCCCCCCCCC1	-4%	i
Cc1cc(=O)[nH]c(NN=C(CC(C)C)CC(C)C)n1	-12%	i
COc1ccc(/C=C(\NC(=O)c2ccccc2)C(=O)N/N=C/c2sccc2C)cc1	-4%	-16%
Nc1ccc(N=Nc2ccccc2Cl)c(N)n1	u	u
Cc1noc(C)c1COC(=O)CCc1ccc(S(=O)(=O)N2CCCCC2)cc1	-4%	-8%
COc1ccc(N2CCN(C(=O)CSc3nc4ccccc4nc3Cc3ccc(Cl)cc3)CC2)cc1	-17%	-19%
O=C(N=C1SC2CS(=O)(=O)CC2N1c1ccc(Br)cc1F)C1CC1 (stereo not given)	-4%	i
O=C(O)c1nn(CCOc2c(Cl)cccc2Cl)c(=O)c2ccccc12	9%	11µM*

Carrying on:
SMILES	Vaccinia Venus	Vaccinia mCherry
CNC(=O)COC(=O)c1ccccc1NC(=O)c1ccco1	8%	-1%
Cc1cc(N2CCC(C(=O)NCC3CC3)CC2)nc(-c2ccccc2)n1	-15%	i
O=C(CCC1CCCN(C(=O)c2ccsc2)C1)NCc1ccc(F)c(F)c1 (stereo not given)	-2%	-4%
CC1CCC(NC(=O)c2cccc(S(=O)(=O)NCc3ccccc3)c2)CC1 (stereo not given)	-16%	-28%
Cc1ccc(CSC2=Nc3ccccc3C3=NC(CCC(=O)NCCc4ccccc4)C(=O)N23)cc1 (stereo not given)	-16%	-22%
Cc1cccn2c(=O)c3cc(C(=O)NCCc4ccccc4)c(=N)n(CC4CCCO4)c3nc12 (stereo not given)	2%	-1%
CC(C)(C)N(Cc1cc2ccccc2[nH]c1=O)C(=O)c1cccc([N+](=O)[O-])c1	-11%	i
O=[N+]([O-])c1cccc(-c2nnc(CNC3CC3)o2)c1	-12%	i
C=CCn1c(SCC(=O)NCc2ccco2)nnc1C1CCCCC1	-1%	-14%
Clc1ccc(N2CCOCC2)nn1	-2%	6%
Cc1cc(C)c2cc(CN(CCN(C)C)C(=O)Nc3ccccc3Cl)c(=O)[nH]c2c1	-17%	u
Cc1cc2c(C(F)(F)F)cc(=O)oc2c2c1NCCC2	-15%	-17%
Cc1cc(-n2c(C)c3c(C)nnc(C)c3c2C)ccc1N	0%	15%
c1ccc2sc(Cc3nnc4n3CCCCC4)nc2c1	4%	-2%
Cc1cnc(NC(=O)C2CCC(C(C)(C)C)CC2)s1 (stereo not given)	-12%	-4%
O=C(Nc1ccccc1C(=O)OCc1cc(=O)n2c3c(sc2n1)CCCC3)c1cccc(Cl)c1	-7%	-12%
Cc1[nH]c(-c2ccc(F)cc2)cc1C(=O)N1CCN(c2ccccc2F)CC1	u	u
Cc1ccc(-c2c(C(=O)NCCc3ccc(Cl)cc3)oc(=O)c3ccccc23)cc1	-20%	-11%
COC(=O)c1cc(NC(=S)Nc2cc(Cl)cc(Cl)c2)cc(C(=O)OC)c1	-6%	-2%
CCCS(=O)(=O)NC(=O)C1(C)CCCN(C(=O)c2ccc(F)cc2Cl)C1 (stereo not given)	11%	37%[activator]
CC1(c2nnnn2-c2ccc3c(c2)OCCO3)CCC(=O)N1CCc1ccc(O)cc1 (stereo not given)	1%	-2%
C[C@]12CCC3C(CC[C@H]4C[C@@H](O)CC[C@]34C)C1C[C@@H](O)C2=O (stereo not given in full)	-5%	-23%
CCOC(=O)N1CCN(C(=O)c2ccc(N(C)S(C)(=O)=O)cc2)CC1	9%	x
O=C(NCCc1ccccc1Cl)c1ccc2c(c1)nc1n2CCOC1	-3%	-8%
CCOC(=O)c1cn2nc(Oc3ccc(C)cc3)ccc2n1	-7%	i

Four neighbouring records from above:
SMILES	Vaccinia Venus	Vaccinia mCherry
C[C@]12CCC3C(CC[C@H]4C[C@@H](O)CC[C@]34C)C1C[C@@H](O)C2=O (stereo not given in full)	-5%	-23%
CCOC(=O)N1CCN(C(=O)c2ccc(N(C)S(C)(=O)=O)cc2)CC1	9%	x
O=C(NCCc1ccccc1Cl)c1ccc2c(c1)nc1n2CCOC1	-3%	-8%
CCOC(=O)c1cn2nc(Oc3ccc(C)cc3)ccc2n1	-7%	i

(list continues)
SMILES	Vaccinia Venus	Vaccinia mCherry
COc1ccc2oc(=O)cc(CN3CCN(C(=O)c4ccccc4Br)CC3)c2c1	-25%	-29%
O=C(O)c1ccc(/C=N/Nc2nnnn2-c2ccccc2)cc1	3%	-3%
CCC(=O)N1c2ccccc2-c2nnc(SC)nc2OC1c1ccc(OC)c(OC)c1 (stereo not given)	-8%	-15%
Nc1nc(NCCO)nc(NC2CCCCC2)c1[N+](=O)[O-]	-18%	-23%
O=C(O)Cc1sc(NCCc2ccccc2)nc1-c1ccc(F)cc1	-19%	u
COc1ccc(CC(=O)O/N=C(\N)c2ccc(OC)cc2)cc1	-1%	-15%
COc1cc(CC(=O)Nc2sc3c(c2C(N)=O)CCCC3)cc(OC)c1OC	-5%	i
Cc1ccc(NC(=O)Cn2c(=O)oc3cc(S(=O)(=O)N4CCC(C)CC4)ccc32)cc1Cl	u	u
C=CCn1c(SCC(=O)NC(=O)c2cccc([N+](=O)[O-])c2)nnc1-c1ccccc1F	-19%	-13%
O=C(CCN1CCCCCC1)Nc1ccc2c(c1)OCCO2	-3%	i
CCOC(=O)C(=O)N(C)c1c(CC)nc2c(OCc3cc(Cl)cc(Cl)c3)cccn12	-2%	i

Screens as filed in PubChem.
